# Screens (PubChem BioAssay)
# Cruzain Triton: qHTS Assay for Promiscuous and Specific Inhibitors of Cruzain (with detergent) | 200,000 tested, 0.43% active | purified cruzain, Z-FR-AMC fluorescence, 0.01% Triton | AID 1478, 2009 | Cruzipain (Trypanosoma cruzi), P25779 | Potency, µM, inactives show max response, negative = inhibition, most hits filed as inhibitors;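 also: plate controls were neutral wells for no effect and buffer without enzyme for full effect; nearly all actives have a fitted effect of over 40% in size; top concentration of the series not given in the record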
# Target sequence (P25779 123-467 limits assumed): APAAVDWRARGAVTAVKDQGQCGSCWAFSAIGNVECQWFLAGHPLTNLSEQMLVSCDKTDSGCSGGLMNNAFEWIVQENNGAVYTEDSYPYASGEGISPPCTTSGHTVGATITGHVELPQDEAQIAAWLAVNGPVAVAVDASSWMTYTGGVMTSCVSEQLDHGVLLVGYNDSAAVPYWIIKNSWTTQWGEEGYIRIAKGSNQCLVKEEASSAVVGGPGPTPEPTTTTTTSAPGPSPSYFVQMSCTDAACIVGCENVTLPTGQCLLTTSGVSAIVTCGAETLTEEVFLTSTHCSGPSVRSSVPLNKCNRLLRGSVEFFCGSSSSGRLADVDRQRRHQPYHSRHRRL
#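 Cysteine protease activity tested under reducing, mildly acidic conditions (100 mM sodium acetate pH 5.5, 5 mM DTT) plus 0.01% Triton X-100. Cruzain 1.5 nM; substrate Z-FR-AMC 2 uM; 15 min compound preincubation at room temperature.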
# SARS PLP yeast: qHTS of Yeast-based Assay for SARS-CoV PLP. S. cerevisiae expressing SARS-CoV PLpro, growth rescue; control for the full effect not named in the record. Potency, µM (doses to about 32.9 µM), without a hit: at the top dose activity, positive = growth rescue. AID 485353, 2010. 330,000 tested, 0.19% active; active means well fitted rising curve with a large enough effect; inconclusive means small, poorly fitted or top-dose-only effect; inactive means no such curve, though single readings can be large or run the other way; also: 0% is about no effect; nearly all actives have a fitted effect of over 55% in size; growth read by luminescence after 48 h
# Lassa entry inh: qHTS for Inhibitors of binding or entry into cells for Lassa Virus | Lassa virus pseudotype entry inhibition, cell reporter; control for the full effect not named in the record | Potency, µM (top dose mostly 37.9 µM), for the others: at the top dose activity change, negative = inhibition, actives largely listed as inhibitors | 300,000 tested, 1.2% active | AID 540256, 2011; active means well fitted inhibition curve with a large enough effect; inconclusive means small, poorly fitted or top-dose-only effect, or effect the other way; inactive means flat fitted curve, though single readings scatter; tested in HEK293 cells; also: % is scaled to controls: 0 for no effect and ±100 for the full control effect; nearly all actives have a fitted effect of over 50% in size; luciferase read-out
# NS1 inh: qHTS Assay for Inhibitors of Influenza NS1 Protein Function; S. cerevisiae slowed by influenza A NS1, growth recovery by OD600; Potency, µM (series often up to 46.1 µM), for inactives: at the top dose activity, positive = more growth; 270,000 tested, 0.4% active; AID 2326, 2010; active means well fitted rising curve with a large enough effect; inconclusive means small, poorly fitted or top-dose-only effect; inactive means no such curve, though single readings can be large or run the other way; also: nearly all actives have a fitted effect of over 50% in size
#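 Recovery from NS1-induced slow growth read by OD600 in budding yeast switched to galactose assay medium (pH 6.0, -URA) at 1:100 dilution. Compound 23 nl per well; the matching strain lacking NS1 serves as control.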
# Marburg entry inh: qHTS for inhibitors of binding or entry into cells for Marburg Virus; Marburg virus pseudotyped entry inhibition, cell reporter; control for the full effect not named in the record; about a third of the inactives were read at about 46 µM; Potency, µM (series often up to 37.8 µM), for the others: at the highest dose activity change, negative = inhibition, most hits filed as inhibitors; 300,000 tested, 1.8% active; AID 540276, 2011; active = well fitted inhibition curve with a large enough effect; inconclusive = small, poorly fitted or top-dose-only effect, or effect the other way; inactive = flat fitted curve, though single readings scatter; tested in HEK293 cells; about a fifth of its hits are not listed in these tables; also: % is scaled to controls: 0 for no effect and ±100 for the full control effect; luciferase read-out
# Cruzain inh noDet: qHTS Assay for Promiscuous and Specific Inhibitors of Cruzain (without detergent). 200,000 tested, 2.3% active. Potency, µM, for inactives: max response, negative = inhibition, most hits filed as inhibitors. purified cruzain, Z-FR-AMC fluorescence, no detergent. Cruzipain (Trypanosoma cruzi), P25779;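 also: plate controls were enzyme without inhibitor for no effect and buffer without enzyme for full effect; nearly all actives have a fitted effect of over 40% in size; top concentration of the series not given in the record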
#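 Detergent-free condition (0.00005% Triton X-100) in acetate buffer pH 5.5 with DTT. 1.5 nM enzyme and compound were pre-mixed 15 min, then 2 uM Z-FR-AMC substrate added; reaction progress from fluorescence change between first and third reads (60 s).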
# RE007 growth inh: qHTS Assay for Inhibitors of the HIV-1 protein Vpr; S. pombe RE007 Vpr strain, BacTiter-Glo ATP luminescence, 24 h; control for the full effect not named in the record; Potency, µM (highest dose often 92.2 µM), for inactives: at the highest dose activity change, negative = less growth; 360,000 tested, 0.21% active; active = well fitted falling curve with a large enough effect; inconclusive = small, poorly fitted or top-dose-only effect; inactive = no such curve, though single readings can be large or run the other way;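 also: % is scaled to controls: 0 for no effect and ±100 for the full control effect; nearly all actives have a fitted effect of over 50% in size; the assay follows cell death caused by Vpr and the record does not say whether a fall means rescue or toxicity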
#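 Fission yeast strain RE007, carrying one chromosomally integrated HIV-1 vpr copy, was seeded at OD 0.01 in PMG+AL medium with 23 nL pinned compound. After 24 h at 30 °C and 99% humidity, viability was read by BacTiter-Glo luminescence.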
# 2A StopGo: High Throughput Screening for Foot and Mouth Disease Virus Antivirals. human cells with a luciferase reporter of 2A StopGo recoding; control for the full effect not named in the record. Potency, µM (series often up to 57.9 µM), for inactives: at the top dose signal change, negative = less light. 410,000 tested, 1.2% active; active = well fitted falling curve with a large enough effect; inconclusive = small, poorly fitted or top-dose-only effect; inactive = no such curve, though single readings can be large or run the other way; tested in HEK293T cells; also: % is scaled to controls: 0 for no effect and ±100 for the full control effect; nearly all actives have a fitted effect of over 45% in size; luciferase light after 4 h
# An asterisk follows results filed as active; ? = inconclusive; . = not tested or not shown; & = joins results of further samples; [ ] = dose if it differs, or a comment. Unless noted, calls follow the shape of the dose curve; as a rule, active = well fitted curve in the direction sought with a large enough effect; inconclusive = small, poorly fitted or top-dose-only effect, or another doubt; inactive = no such curve, though single readings can be large; an effect the other way counts as inactive or inconclusive. Potency is read from the fitted curve at half-maximal effect.
SMILES,Cruzain Triton,SARS PLP yeast,Lassa entry inh,NS1 inh,Marburg entry inh,Cruzain inh noDet,RE007 growth inh,2A StopGo
Cc1noc(C)c1COC(=O)c1ccc2c(c1)OCCO2,-2.5%,9%,13%,-8%,3%,-10%,-5%,-6%
O=C(NN=Cc1c(F)cccc1F)c1ccccc1NS(=O)(=O)c1cccs1,.,-2%,-3%,.,13%,.,2%,11%
CCCNC(=O)c1nc(C)n(-c2cc(Cl)cc(Cl)c2)n1,.,-2%,-12%,2%,-6%[46.1 µM],.,12%,-2%
CC(=O)c1cc(-c2ccccc2)n(CCC(=O)Nc2cc(C)cc(C)c2)c1C,-11%,.,?,.,.,-3%,.,-10%
CNc1ccc(Br)cc(C(=O)/C=C/c2ccc(Cl)cc2Cl)c1=O,.,-1%,?,3%,?,.,3%,10µM*
CCn1cc2nc(SCc3ccc(F)cc3)n(Cc3ccc(Cl)cc3)c(=O)c2n1,3.1%,.,-8%[46.1 µM],.,.,-7%,.,?
COc1ccc(/C=C/C(=O)Nc2ccccc2C(N)=O)cc1S(=O)(=O)N1CCOCC1,.,1%,9%,.,-12%[46.1 µM],.,-6%,-10%
CCOC(=O)c1cnc2ccccc2c1Nc1ccc(C(=O)O)cc1,.,0%,1%[46.1 µM],1%,?,.,-6%,-5%
COc1ccccc1NC(=O)COC(=O)c1cnccn1,1.1%,-14%,-17%,7%,5%,1%,-10%,2%
CCc1noc(-c2ccc(N3CCCCC3C)c([N+](=O)[O-])c2)n1 (stereo not drawn),-4.4%,.,-3%[46.1 µM],.,-2%[46.1 µM],14%,.,37%[activator]
O=C(Nc1ccc(C(F)(F)F)cc1)c1cc(S(=O)(=O)NCC2COc3ccccc3O2)ccc1F (stereo not drawn),-13%,-42%,-7%,-26%,-17%,12%,3%,?
CCOc1ccc2[nH]c3c(=O)n(CCC4=CCCCC4)cnc3c2c1,.,0%,?,6%,-1%[46.1 µM],.,8%,4%

# The final 3 entries of the part before open the next one.
SMILES,Cruzain Triton,SARS PLP yeast,Lassa entry inh,NS1 inh,Marburg entry inh,Cruzain inh noDet,RE007 growth inh,2A StopGo
CCc1noc(-c2ccc(N3CCCCC3C)c([N+](=O)[O-])c2)n1 (stereo not drawn),-4.4%,.,-3%[46.1 µM],.,-2%[46.1 µM],14%,.,37%[activator]
O=C(Nc1ccc(C(F)(F)F)cc1)c1cc(S(=O)(=O)NCC2COc3ccccc3O2)ccc1F (stereo not drawn),-13%,-42%,-7%,-26%,-17%,12%,3%,?
CCOc1ccc2[nH]c3c(=O)n(CCC4=CCCCC4)cnc3c2c1,.,0%,?,6%,-1%[46.1 µM],.,8%,4%
CCCN(CCC)C(=O)CSc1nc2n[nH]c(C)c2c(=N)n1-c1ccc(OC)cc1,-9.3%,1%,?,-8%,?,?,18%,22µM*
OCC[C@@H]1C[C@H](O)[C@@H](O)[C@]2(Cc3ccccc3O2)O1,.,-2%,.,1%,.,.,1%,-3%
CC(=O)Nc1ccc(N2C(=O)CC(N3CC(C)OC(C)C3)C2=O)cc1 (stereo not drawn),3.9%,-2%,10%,0%,2%,-4%,2%,-4%
Cc1csc(NC(=O)CSc2nnc(-c3ccco3)n2C)n1,1.3%,3%,10%,8%,1%,8%,19%,-1%
CCC(C)[C@H]1CNC(=S)N1CCc1cc(C(F)(F)F)cc(C(F)(F)F)c1 (stereo partly drawn),.,0%,.,12%,.,.,6%,?
COc1ccc(-c2[nH]ncc2/C=C(/C#N)C(=O)NC2CCCCC2)cc1,-4.3%,2%,?,1%,?,2%,-5%,?
CC(=O)N1Cc2ccccc2C(C)CC12CCCCC2 (stereo not drawn),-1.6%,-6%,16%,-28%,-18%,-13%,31%,?
Cc1c(Cl)cccc1N/C(=N/S(=O)(=O)c1cccs1)c1ccccc1,.,-1%,-15%,-2%,?,.,-2%,4%
O=C(NCc1ccc2c(c1)OCO2)c1ccc(CSCc2ccccc2Cl)o1,-5.9%,?,10%,15%,23%,7%,17%,-24%
COc1ccccc1CNCC(O)(c1ccc(F)cc1)c1ccc(F)cc1,.,5%,.,-1%,.,.,3%,-26%
CCN(CC)S(=O)(=O)c1ccc2c(c1)nc(CCC(=O)OCC(=O)Nc1c(F)cccc1F)n2C,-4.8%,-3%,5%,-24%,?,-5%,-25%,-6%
Cc1ccc(NC(=O)C2CCCN(c3nnc(-n4c(C)ccc4C)s3)C2)cc1Cl (stereo not drawn),-5.9%,.,-20%[46.1 µM],.,-13%[46.1 µM],-17%,.,-26%

# Entries listed so far that contain an aryl thioether with sulfur outside any ring, in the order listed:
SMILES,Cruzain Triton,SARS PLP yeast,Lassa entry inh,NS1 inh,Marburg entry inh,Cruzain inh noDet,RE007 growth inh,2A StopGo
CCn1cc2nc(SCc3ccc(F)cc3)n(Cc3ccc(Cl)cc3)c(=O)c2n1,3.1%,.,-8%[46.1 µM],.,.,-7%,.,?
CCCN(CCC)C(=O)CSc1nc2n[nH]c(C)c2c(=N)n1-c1ccc(OC)cc1,-9.3%,1%,?,-8%,?,?,18%,22µM*
Cc1csc(NC(=O)CSc2nnc(-c3ccco3)n2C)n1,1.3%,3%,10%,8%,1%,8%,19%,-1%

# More compounds follow.
SMILES,Cruzain Triton,SARS PLP yeast,Lassa entry inh,NS1 inh,Marburg entry inh,Cruzain inh noDet,RE007 growth inh,2A StopGo
COC(=O)c1cccc(F)c1C(=O)c1cccc2ccccc12,.,.,5%[46.1 µM],.,?,.,1%,-4%
O=C(Nc1ccc(Br)cc1)C1CCC(=O)N1Cc1ccccc1Cl (stereo not drawn),0.9%,3%,-2%,-5%,?,13%,-26%,-24%
COc1ccc2c(Sc3ccc(C)cc3)c(C(=O)NC(C)c3ccccc3)[nH]c2c1 (stereo not drawn),-7.2%,.,-20%[46.1 µM],.,?,?,.,10%
Cc1cc(NC(=O)CN(C)S(=O)(=O)c2cnc[nH]2)ccc1Br,.,-2%,.,-1%,.,.,20%,-21%
COc1cc(CC(=O)OCC(=O)NCc2cccs2)cc(OC)c1OC,.,2%,-15%,.,24%,.,-10%,-15%
Cc1c(Cl)cccc1NC(=O)C1C2C=CC(C2)C1C(=O)O (stereo not drawn),.,1%,-28%,12%,?,.,25%,-19%
Cc1ccc(S(=O)(=O)NC2=NCN(CCOC(=O)c3ccccc3)CN2)cc1,1.8%,-3%,-2%,3%,4%,11%,-6%,-6%
COc1ccc(-c2nc(SC)n(C(=O)c3ccco3)n2)cc1,-6.6%,?,4%,-9%,1%,-13%,-8%,2%
O=c1c2cn[nH]c2[nH]c(=S)n1-c1ccccc1,-2.6%,?,3%,8%,-10%,4%,-9%,5%
O=C(c1cccc(Cl)c1)C1CCCN(Cc2ccc(N3CCNC3=O)cc2)C1 (stereo not drawn),.,0%,-30%[46.1 µM],7%,?,.,-7%,-16%
NC(=O)[C@@H]1[C@@H]2C(=O)N(c3ccc(F)cc3)C(=O)[C@@H]2[C@H]2C=Cc3ccccc3N21,.,0%,21%,9%,?,.,2%,-3%
Cc1ccnc(NC(=O)CCC2CCCCC2)c1,-3.1%,-5%,-2%,-8%,-12%,-3%,-17%,33%[activator]
CC(=O)Nc1ccc(NS(=O)(=O)c2cc(-c3cnc(C4CC4)o3)ccc2C)cc1,.,3%,.,-7%,.,.,-10%,-3%
Cc1ccc(-n2c(SCC(N)=O)nc3c(oc4ccccc43)c2=O)cc1,-4.4%,1%,8%[46.1 µM],1%,?,5%,-4%,-11%&-11%
CC12C=CC3(CN(Cc4ccccc4)C(=O)C3C1C(=O)NCc1ccco1)O2 (stereo not drawn),1.6%,-1%,1%,6%,1%,1%,16%,-23%
O=C(O)COC(=O)C1C(c2ccccc2)C(C(=O)O)C1c1ccccc1 (stereo not drawn),.,2%,2%[46.1 µM],3%,41%[46.1 µM],.,3%,12%
CN(Cc1ccco1)C(=O)C(Cc1ccccc1)NS(=O)(=O)c1ccc2c(c1)CCC(=O)N2 (stereo not drawn),-4.0%,5%,.,-72%,4%,-9%,-2%,16%
COc1cccc(CN2CCNC(=O)C2CC(=O)NCCCN2CCCC2=O)c1 (stereo not drawn),.,4%,.,11%,.,.,-8%,-6%
COc1cccc(Nc2nc(N)c([N+](=O)[O-])c(N3CCOCC3)n2)c1,.,-1%,.,-5%,.,.,-8%,?
Cc1cccc(OCc2nnc(SCC(=O)N3CCc4ccccc43)n2C)c1,-3.1%,-6%,0%,-10%,-27%,?,-4%,-18%
COc1ccc(CN(C)Cc2ccccc2)c(OC)c1OC,1.3%,9%,-21%,12%,-26%,2%,-25%,-11%
COc1ccc(/C(=N/O)C(C)(C)NO)cc1,-2.5%,5%,0%,6%,14%,-21%,20%,0%
COC(=O)C1(CO)NC(c2ccc(C)cc2)C2C(=O)N(c3ccccc3)C(=O)C21 (stereo not drawn),.,-1%,.,15%,.,.,11%,-5%
CCOC(=O)C1=C(C)C/C(=N\NC(=O)c2ccccc2O)CC1,.,-1%,.,-37%,.,.,-25%,14%
CCOC(=O)c1sc(NC(=O)c2cc3ccccc3o2)nc1C,.,-3%,-25%,.,?,.,-17%,63%[activator]
COC(=O)Cn1nc(-c2ccccc2)c2ccccc21,-1.1%,-26%,8%,-102%,1%,9%,-20%,-17%
CCN1CCN(c2ccc(S(=O)(=O)N3CCOCC3)cc2NC(=O)c2cc(Cl)nc3ccccc23)CC1,.,-4%,21%,.,?,.,-12%,-6%
Nc1cccnc1Sc1cccc(Cl)c1,5.1%,-7%,9%,-12%,1%&1%,1%,18µM*,-25%
CCCC(C)c1nnc(NC(=O)CN2C(=O)c3ccccc3C2=O)s1 (stereo not drawn),.,4%,.,9%,.,.,-13%,-10%
C/C=C/C=C/C(=O)OC(C)C(=O)Nc1cc([N+](=O)[O-])ccc1OC (stereo not drawn),.,-4%,?,.,11%,.,1%,-15%
